Screening data (PubChem)
Ecoli rRNA inh: inhibitors of bacterial rRNA selective over humanized ribosomes | E. coli WT GFP vs humanized-ribosome RFP mutants, fluorescence, 24 h; active compounds read low; DMSO median 0, no signal -100 | GFP signal change (wild-type ribosome), % (concentration not given with the values) | 1.6% of 350,000 active;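 active means significant combined selectivity score with lowered wild-type GFP, culture density cut under 30%, mutant RFP and density less affected; inactive means any of these conditions unmet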; further: one replicate is shown; some compounds called inactive have numbers as strong as hits
Ecoli rRNA inh OD600: recorded beside Ecoli rRNA inh, whose call it bears; OD600 change, %; measured here: OD600 growth;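 optical density of the mix in the first replicate; 0 = DMSO median and -100 = no signal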
Ecoli rRNA inh RFP: also measured in Ecoli rRNA inh; calls as there; RFP signal change, %; measured here: RFP humanized mutant strains;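 first replicate; 0 = DMSO median and -100 = no signal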
* marks the source's active call; other numbers are inactive results; & = joins results of further samples. This is a subset; the hit share may differ from the screen's.

No.	compound	Ecoli rRNA inh RFP	Ecoli rRNA inh	Ecoli rRNA inh OD600
1	O=C(NCc1ccc(F)cc1)[C@H]1[C@H](CO)[C@H]2Cn3c(cccc3=O)[C@H]2N1C(=O)C1CC1	-3.4	1.6	-2.6
2	COc1ccc(C(=O)N2C[C@@H]3[C@H](c4ccccc42)[C@H](CO)N3Cc2ccccc2Cl)cc1	-3.5	-30.9	-52.8
3	Cc1ccc2oc(NC3=NC4(CCCC4)C4=C(CCCC4=O)N3)nc2c1	1.0	3.5	-1.4
4	O=C(OCC(=O)N1CCOCC1)c1cncc(Br)c1	0.4	1.0	1.9
5	COc1ccc(OCCN2CCC(C(=O)NC(c3ccc(OC)cc3)c3ccccn3)CC2)cc1 (stereo unspecified)	-0.3	3.4	13.2
6	C[C@H](CO)N1C[C@H](C)[C@@H](CN(C)Cc2ccc(C(F)(F)F)cc2)Oc2ccc(NC(=O)Cc3ccccc3)cc2C1=O	2.6	-1.4	-16.9
7	C[C@@H]1CN([C@H](C)CO)C(=O)c2cc(NC(=O)C3CCCCC3)ccc2O[C@@H](C)CCCCO[C@H]1CN(C)Cc1ccc(C(F)(F)F)cc1	3.8	1.6	-5.1
8	C[C@@H]1CN([C@H](C)CO)C(=O)c2cc(NC(=O)Cc3ccccc3)ccc2O[C@@H](C)CCCCO[C@H]1CN(C)S(=O)(=O)c1ccc(Cl)cc1	2.4	5.7	3.4
9	C[C@@H]1CN([C@H](C)CO)C(=O)Cc2cc(NS(C)(=O)=O)ccc2O[C@H]1CN(C)S(=O)(=O)c1ccccc1	1.2	-1.0	-2.3
10	COc1ccccc1NC(=O)N1C[C@@H]2[C@H](c3ccccc31)[C@@H](CO)N2C(C)=O	-0.5	5.5	8.2
11	COc1ccc(NC(=O)N(C)C[C@@H]2Oc3c(NC(=O)c4ccc(-c5nccs5)cc4)cccc3C(=O)N([C@H](C)CO)C[C@H]2C)cc1	-2.5	-0.4	1.9
12	CCCNC(=O)C[C@@H]1CC[C@@H]2[C@H](COC[C@H](O)CN2C(=O)CC)O1	-5.4	1.2	22.1

Reprinted at random: two compounds from above
No.	compound	Ecoli rRNA inh RFP	Ecoli rRNA inh	Ecoli rRNA inh OD600
6	C[C@H](CO)N1C[C@H](C)[C@@H](CN(C)Cc2ccc(C(F)(F)F)cc2)Oc2ccc(NC(=O)Cc3ccccc3)cc2C1=O	2.6	-1.4	-16.9
5	COc1ccc(OCCN2CCC(C(=O)NC(c3ccc(OC)cc3)c3ccccn3)CC2)cc1 (stereo unspecified)	-0.3	3.4	13.2

As entered above.
In Ecoli rRNA inh, #4 has the entry 1.0
In Ecoli rRNA inh RFP, #2 has the entry -3.5
In Ecoli rRNA inh RFP, #6 has the entry 2.6

(list continues)
No.	compound	Ecoli rRNA inh RFP	Ecoli rRNA inh	Ecoli rRNA inh OD600
13	COc1cccc(-c2ccc([C@H]3[C@H](CO)N4C(=O)CN(C(=O)CN5CCOCC5)C[C@@H]34)cc2)c1	-4.0	3.2	3.0
14	C[C@@H]1CN([C@H](C)CO)C(=O)CCCn2cc(nn2)CO[C@H]1CN(C)C(=O)Nc1ccccc1F	-3.0&0.1	7.9&-1.7	12.9&1.9
15	CCOC(=O)C1=CCN(S(=O)(=O)c2ccc(F)cc2)C1c1cccc(F)c1 (stereo unspecified)	-8.7	-3.4	-19.8
16	C[C@@H]1CN([C@H](C)CO)C(=O)c2cccc(NC(=O)Nc3ccc(C(F)(F)F)cc3)c2O[C@@H]1CN(C)Cc1ccc(-c2ccccc2)cc1	4.1	4.1	6.3
17	Cc1noc(C)c1NC(=O)Nc1ccc2c(c1)C(=O)N([C@H](C)CO)C[C@@H](C)[C@H](CN(C)C(=O)Nc1ccc(C(F)(F)F)cc1)OCCCC[C@H](C)O2	-0.5	-1.5	-0.5
18	CCNC(=O)[C@H]1[C@H](CO)[C@H]2Cn3c(ccc(-c4ccc(F)cc4)c3=O)[C@H]2N1Cc1ccccc1F	-0.2	-4.4	-12.8
19	C[C@H](CO)N1C[C@H](C)[C@@H](CN(C)C(=O)Cc2ccncc2)Oc2ncc(C3=CCCCC3)cc2C1=O	2.0	1.7	2.9
20	O=CNc1cc(-c2ccoc2)cn2c(-c3ccc(F)cc3)cnc12	11.2	18.9	25.0
21	CN(C)C(=O)[C@@H]1[C@@H](CO)[C@@H]2Cn3c(ccc(-c4cccnc4)c3=O)[C@@H]2N1Cc1ccccc1F	0.2	1.4	2.7
22	O=C(O)C[C@H]1C[C@H]2c3cc(NS(=O)(=O)c4ccc(F)cc4)ccc3O[C@H]2[C@H](CO)O1	-1.1	11.1	5.4
23	COc1ccc(S(=O)(=O)N2CCCCC2c2cc(C(=O)Nc3ccccc3)no2)cc1 (stereo unspecified)	-0.8	0.2	-6.6
24	C[C@@H]1CN([C@H](C)CO)C(=O)c2cc(NC(=O)Cc3cn(C)c4ccccc34)ccc2O[C@H]1CN(C)Cc1ccc(Oc2ccccc2)cc1	1.3	-1.8	-4.3

No.	compound	Ecoli rRNA inh RFP	Ecoli rRNA inh	Ecoli rRNA inh OD600
25	O=C(C1CC1)N1C[C@H]2[C@@H](c3ccccc31)[C@H](CO)N2C(=O)c1ccccc1	0.5	4.9	7.9
26	CN(Cc1ccccc1)C(=O)c1[nH]cnc1C(=O)Nc1ccc(Br)cc1F	-5.8	-23.2	-28.0
27	O=c1[nH][nH]c2c1C(C1CCCCC1)OC(C1CCCCC1)C2 (stereo unspecified)	-4.8	-21.5	-30.9
28	Cn1cnc(S(=O)(=O)N2[C@@H]3CNC[C@H]2C3c2ccc(-c3ccc(F)cc3)cc2)c1 (stereo partly specified)	4.2	4.0	3.1
29	C[C@@H]1CN([C@H](C)CO)C(=O)c2cccc(NS(=O)(=O)c3ccccc3)c2O[C@@H]1CN(C)C(=O)Nc1ccc2c(c1)OCO2	-1.4	-1.2	-1.4
30	CO[C@@H]1CN(C)C(=O)c2ccc(NS(C)(=O)=O)cc2OC[C@H](C)N(C(=O)C2CCCC2)C[C@@H]1C	-4.5	2.1	2.7
31	C[C@@H](NC(=O)[C@@H]1[C@@H](CO)[C@@H]2Cn3c(cccc3=O)[C@H]1N2C(=O)C1CCC1)c1ccccc1	-1.7	-2.0	-7.4
32	COc1ccc(S(=O)(=O)Nc2ccc3c(c2)C(=O)N([C@@H](C)CO)C[C@H](C)[C@@H](CN(C)C(=O)c2ccccc2)OCCCC[C@H](C)O3)cc1	2.1	-0.8	-6.5
33	COc1ccc(S(=O)(=O)N(C)C[C@@H]2Oc3ccc(NS(=O)(=O)c4cn(C)cn4)cc3C(=O)N([C@@H](C)CO)C[C@H]2C)cc1	-1.4	4.6	7.3
34	CO[C@@H]1CN(C)C(=O)c2ccc(NC(=O)C3CC3)cc2OC[C@@H](C)N(C(=O)c2ccccn2)C[C@H]1C	-2.7	4.2	6.0
35	C[C@@H]1CCCCO[C@@H](CN(C)C(=O)Nc2ccc3c(c2)OCO3)[C@H](C)CN([C@H](C)CO)C(=O)c2cc(NC(=O)Nc3ccc(C(F)(F)F)cc3)ccc2O1	-2.0	2.4	2.5
36	CO[C@H]1CC[C@@H]2CCOc3c(C#N)cccc3C(=O)N(C)C[C@H](C)C(=O)N(C)C[C@@H]1O2	-3.5	6.8	25.4

Some of the entries above in a different format.
Values run as follows: Ecoli rRNA inh RFP	Ecoli rRNA inh	Ecoli rRNA inh OD600
30	CO[C@@H]1CN(C)C(=O)c2ccc(NS(C)(=O)=O)cc2OC[C@H](C)N(C(=O)C2CCCC2)C[C@@H]1C
→ -4.5	2.1	2.7
28	Cn1cnc(S(=O)(=O)N2[C@@H]3CNC[C@H]2C3c2ccc(-c3ccc(F)cc3)cc2)c1 (stereo partly specified)
→ 4.2	4.0	3.1
36	CO[C@H]1CC[C@@H]2CCOc3c(C#N)cccc3C(=O)N(C)C[C@H](C)C(=O)N(C)C[C@@H]1O2
→ -3.5	6.8	25.4
26	CN(Cc1ccccc1)C(=O)c1[nH]cnc1C(=O)Nc1ccc(Br)cc1F
→ -5.8	-23.2	-28.0
27	O=c1[nH][nH]c2c1C(C1CCCCC1)OC(C1CCCCC1)C2 (stereo unspecified)
→ -4.8	-21.5	-30.9

The list continues:
No.	compound	Ecoli rRNA inh RFP	Ecoli rRNA inh	Ecoli rRNA inh OD600
37	O=C(Nc1ccc(Cl)c(Cl)c1)N[C@H]1CC[C@@H](CCn2cc(C3CCCCC3)nn2)O[C@H]1CO	-5.8	-49.5	-72.5
38	CC(C)NC(=O)N1C[C@@H]2C(c3ccc(Br)cc3)[C@H](C1)N2CC(F)(F)F (stereo partly specified)	-0.5&0.4	-2.4&-7.0	-11.6&-21.9
39	C[C@@H]1CCCCO[C@@H](CN(C)C(=O)CCCN(C)C)[C@H](C)CN([C@@H](C)CO)C(=O)c2cc(NS(=O)(=O)c3ccc(F)cc3)ccc2O1	-0.7	2.7	11.5
40	O=C(N[C@H]1CC[C@@H](CCNC(=O)c2cnccn2)O[C@@H]1CO)c1ccc2c(c1)OCO2	-1.1	-0.3	2.5
41	CO[C@@H]1CN(C)C(=O)c2cc(NC(=O)C3CCC3)ccc2OC[C@H](C)NC[C@H]1C	-1.6	2.1	7.5
42	COc1ccc2c3c([nH]c2c1)[C@@H](CO)N(C(=O)c1ccncc1)CC31CN(C(=O)NC(C)C)C1	-2.7	5.3	16.2
43	CCNC(=O)C[C@H]1CC[C@@H]2[C@H](COC[C@H](O)CN2Cc2ccncc2)O1	0.3	1.7	-2.7
44	Cc1noc(C)c1S(=O)(=O)N(C)C[C@@H]1Oc2ccc(NC(=O)C3CC3)cc2CC(=O)N([C@@H](C)CO)C[C@H]1C	-0.1	3.0	4.5
45	CC(C)CC#Cc1ccc([C@@H]2[C@H]3CN(C(=O)Nc4cc(F)ccc4F)CC(=O)N3[C@H]2CO)cc1	2.5	-9.7	-19.9
46	C[C@H]1CN([C@@H](C)CO)C(=O)c2cc(C#CCc3ccccc3)cnc2O[C@@H]1CN(C)C(=O)C1CCCCC1	1.7	-2.7	-5.1
47	O=C(C[C@H]1CC[C@H]2[C@@H](COC[C@@H](O)CN2Cc2nccs2)O1)NCc1ccccc1F	-0.1	2.4	4.3
48	C[C@H](CO)N1C[C@H](C)[C@@H](CN(C)C(=O)Nc2ccc3c(c2)OCO3)Oc2cc(C3=CCCCC3)ccc2S1(=O)=O	6.4	-0.6	-4.0

No.	compound	Ecoli rRNA inh RFP	Ecoli rRNA inh	Ecoli rRNA inh OD600
49	CCC(=O)N(C)C[C@H]1Oc2cc(-c3ccccc3OC)ccc2S(=O)(=O)N([C@H](C)CO)C[C@@H]1C	-4.6	-3.3	-9.6
50	COc1ccc(S(=O)(=O)Nc2ccc3c(c2)C(=O)N([C@@H](C)CO)C[C@@H](C)[C@H](CN(C)C)OCCCC[C@H](C)O3)cc1	-0.3	1.2	5.3
51	COc1cccc(C(=O)N2C[C@@H]3[C@H](c4ccccc42)[C@H](CO)N3C(=O)NC(C)C)c1	-0.5	2.5	2.8
52	C[C@@H]1CN([C@@H](C)CO)C(=O)c2cc(NS(=O)(=O)c3ccc(Cl)cc3)ccc2O[C@@H](C)CCCCO[C@@H]1CN(C)C(=O)c1ccccc1	0.3	2.3	-1.8
53	Cc1noc(C)c1S(=O)(=O)N(C)C[C@@H]1OCCCC[C@H](C)Oc2ccc(NC(=O)CCCN(C)C)cc2C(=O)N([C@H](C)CO)C[C@@H]1C	-0.1	-0.4	1.0
54	CC(C)NC(=O)N(C)C[C@@H]1OCCCC[C@H](C)Oc2ccc(NS(=O)(=O)c3ccccc3)cc2C(=O)N([C@@H](C)CO)C[C@@H]1C	0.5	0.9	-3.1
55	C[C@H](CO)N1C[C@H](C)[C@@H](CN(C)C(=O)NC2CCCCC2)OCCCC[C@H](C)Oc2ccc(NC(=O)c3ccccc3)cc2C1=O	0.7	-4.5	-9.1
56	COc1ccc2c3c(n(C)c2c1)[C@H](CO)N(C(=O)CN1CCOCC1)CC31CN(C(=O)C2CC2)C1	-1.3	4.4	1.5
57	CCCN1CCC(C)(C(=O)Nc2cccc(OC(C)C)c2)C1 (stereo unspecified)	-2.4	7.3	5.2
58	COC(=O)C1=C(C)N(Cc2ccc(Br)cc2)C(=S)NC1c1cccc(Br)c1 (stereo unspecified)	7.0	35.6	20.1
59	CC(C)NC(=O)N(C)C[C@H]1OCCCC[C@@H](C)Oc2ccc(NC(=O)CCC(F)(F)F)cc2C(=O)N([C@H](C)CO)C[C@@H]1C	-0.8	-0.3	8.3
60	COc1ccc(NC(=O)Nc2ccc3c(c2)C(=O)N([C@H](C)CO)C[C@H](C)[C@@H](CN(C)Cc2ccc(C(=O)O)cc2)OCCCC[C@@H](C)O3)cc1	-0.5	0.5	3.2

No.	compound	Ecoli rRNA inh RFP	Ecoli rRNA inh	Ecoli rRNA inh OD600
61	CCCNC(=O)N(C)C[C@@H]1Oc2ncc(C3=CCCC3)cc2C(=O)N([C@@H](C)CO)C[C@H]1C	-2.8	2.5	-3.4
62	COc1cccc(C#Cc2ccc3c(c2)O[C@H](CN(C)C(=O)CN2CCOCC2)[C@@H](C)CN([C@H](C)CO)S3(=O)=O)c1	5.2	-7.1	-15.7
63	COc1ccc2c3c([nH]c2c1)[C@H](CO)NCC31CCN(C(=O)Nc2ccccc2F)CC1	-0.5	3.6	4.7
64	CNC[C@@H]1Oc2cc(C#Cc3ccncc3)ccc2S(=O)(=O)N([C@H](C)CO)C[C@H]1C	-0.7	-0.1	-1.4
65	COc1ccc(S(=O)(=O)N(C)C[C@@H]2Oc3ccc(NC(=O)Cc4cn(C)c5ccccc45)cc3CC(=O)N([C@H](C)CO)C[C@@H]2C)cc1	-1.6	-1.4	-3.9
66	N#C[C@H]1N[C@@H](CO)[C@@H]1c1ccc(C#CC2CCCCC2)cc1	7.1	5.3	-7.8
67	O=C(C[C@H]1C[C@H]2c3cc(NC(=O)NC4CCCC4)ccc3O[C@H]2[C@H](CO)O1)NCc1ccccn1	-0.6	3.0	7.3
